Bioassay records as filed in PubChem.
NS1 function inh = influenza NS1 inhibition; S. cerevisiae slowed by influenza A NS1, growth recovery by OD600; Potency, µM (top dose mostly 46.1 µM), inactives show at the highest dose activity, positive = more growth; actives 0.4% (n = 270,000); AID 2326; further: actives are rising curves; nearly all actives have a fitted effect of over 50% in size
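A cell-based growth assay was used: compounds that relieve NS1-induced slow growth of budding yeast raise OD600. Assay medium was yeast nitrogen base with ammonium sulphate and -URA supplement, pH 6.0, with 2% galactose.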
SARS PLP yeast = inhibitors of SARS-CoV papain-like protease in yeast; actives 0.19% (n = 330,000); S. cerevisiae expressing SARS-CoV PLpro, growth rescue; control for the full effect not named in the record; Potency, µM (top dose mostly 32.9 µM), for the others: top-dose activity, positive = growth rescue; AID 485353; further: 0% is about no effect; nearly all actives have a fitted effect of over 55% in size; growth read by luminescence after 48 h
Cruzain Triton = inhibitors of Trypanosoma cruzi cruzain with detergent. P25779. purified cruzain, Z-FR-AMC fluorescence, 0.01% Triton. Potency, µM, for inactives: max response, negative = inhibition, most hits filed as inhibitors. actives 0.43% (n = 200,000). AID 1478; active means well fitted curve in the direction sought with a large enough effect; inconclusive means small, poorly fitted or top-dose-only effect, or another doubt; inactive means no such curve, though single readings can be large; an effect the other way counts as inactive or inconclusive;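 further: plate controls were neutral wells for no effect and buffer without enzyme for full effect; nearly all actives have a fitted effect of over 40% in size; top concentration of the series not given in the record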
Target sequence (P25779 123-467 limits assumed): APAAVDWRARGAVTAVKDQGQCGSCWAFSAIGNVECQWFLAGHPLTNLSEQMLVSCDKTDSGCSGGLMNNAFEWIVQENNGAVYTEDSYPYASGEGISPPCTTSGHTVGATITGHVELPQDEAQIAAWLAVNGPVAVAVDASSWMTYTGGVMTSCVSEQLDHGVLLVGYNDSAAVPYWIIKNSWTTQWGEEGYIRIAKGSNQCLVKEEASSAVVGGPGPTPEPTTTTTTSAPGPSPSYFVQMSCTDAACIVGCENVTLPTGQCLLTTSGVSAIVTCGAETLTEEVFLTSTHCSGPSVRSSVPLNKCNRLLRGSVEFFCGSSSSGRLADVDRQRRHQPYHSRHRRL
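Detergent-containing arm of a paired screen for aggregation-based inhibition: 0.01% Triton X-100 present. Cruzain at 1.5 nM cleaved 2 uM Z-FR-AMC at pH 5.5 with 5 mM DTT; AMC fluorescence gain over 60 s measured activity.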
StopGo reporter = lowers the luciferase signal of an FMDV 2A StopGo reporter. Potency, µM (series often up to 57.9 µM), inactives show top-dose signal change, negative = less light. human cells with a luciferase reporter of 2A StopGo recoding; control for the full effect not named in the record. actives 1.2% (n = 410,000). AID 1159524; active = well fitted falling curve with a large enough effect; inconclusive = small, poorly fitted or top-dose-only effect; inactive = no such curve, though single readings can be large or run the other way; tested in HEK293T cells; further: on the % scale 0 is the no-effect control and ±100 the full control effect; nearly all actives have a fitted effect of over 45% in size; luciferase light after 4 h
Marburg entry inh = blocks Marburg virus binding to or entry into cells. Marburg virus pseudotyped entry inhibition, cell reporter; control for the full effect not named in the record; about a third of the inactives were read at about 46 µM. Potency, µM (titrated, usually from 37.8 µM), without a hit: at the top dose activity change, negative = inhibition, actives largely listed as inhibitors. actives 1.8% (n = 300,000). AID 540276; active = well fitted inhibition curve with a large enough effect; inconclusive = small, poorly fitted or top-dose-only effect, or effect the other way; inactive = flat fitted curve, though single readings scatter; tested in HEK293 cells; about a fifth of its hits are not listed in these tables; further: on the % scale 0 is the no-effect control and ±100 the full control effect; luciferase read-out
Cruzain inh noDet = inhibitors of Trypanosoma cruzi cruzain without detergent; actives 2.3% (n = 200,000); purified cruzain, Z-FR-AMC fluorescence, no detergent; Potency, µM, for the others: max response, negative = inhibition, most hits filed as inhibitors; P25779; active means well fitted curve in the direction sought with a large enough effect; inconclusive means small, poorly fitted or top-dose-only effect, or another doubt; inactive means no such curve, though single readings can be large; an effect the other way counts as inactive or inconclusive;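 further: plate controls were enzyme without inhibitor for no effect and buffer without enzyme for full effect; nearly all actives have a fitted effect of over 40% in size; top concentration of the series not given in the record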
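Purified cruzain at 1.5 nM, pre-incubated 15 min with compound at room temperature in 100 mM sodium acetate pH 5.5, 5 mM DTT, 0.00005% Triton X-100. Reaction started with 2 uM Z-FR-AMC; AMC fluorescence increase over 60 s gives rate.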
Lassa entry inh = Lassa virus entry inhibition. actives 1.2% (n = 300,000). Potency, µM (titrated, usually from 37.9 µM), for inactives: top-dose activity change, negative = inhibition, usual class: inhibitors. Lassa virus pseudotype entry inhibition, cell reporter; control for the full effect not named in the record. AID 540256; active means well fitted inhibition curve with a large enough effect; inconclusive means small, poorly fitted or top-dose-only effect, or effect the other way; inactive means flat fitted curve, though single readings scatter; tested in HEK293 cells; further: on the % scale 0 is the no-effect control and ±100 the full control effect; nearly all actives have a fitted effect of over 50% in size; luciferase read-out
RE007 growth inh = less growth of the S. pombe RE007 Vpr strain | AID 651644 | S. pombe RE007 Vpr strain, BacTiter-Glo ATP luminescence, 24 h; control for the full effect not named in the record | Potency, µM (highest dose often 92.2 µM), inactives show at the top dose activity change, negative = less growth | actives 0.21% (n = 360,000); active = well fitted falling curve with a large enough effect; inconclusive = small, poorly fitted or top-dose-only effect; inactive = no such curve, though single readings can be large or run the other way;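 further: on the % scale 0 is the no-effect control and ±100 the full control effect; nearly all actives have a fitted effect of over 50% in size; the assay follows cell death caused by Vpr and the record does not say whether a fall means rescue or toxicity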
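Fission yeast RE007 carrying one integrated HIV-1 vpr copy, seeded at OD 0.01 in PMG+AL medium with 23 nL pinned compound. Grown 24 h at 30 degrees; viability read by BacTiter-Glo luminescence after 5 min.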
An asterisk follows results filed as active; [ ] = remark or other dose. Unless noted, the call rests on the fitted dose curve; in most records, active means well fitted rising curve with a large enough effect; inconclusive means small, poorly fitted or top-dose-only effect; inactive means no such curve, though single readings can be large or run the other way. Potency means the concentration at half of the fitted maximal effect. Not a hit list; about 4.7% have a hit in one of these screens.

`COc1cccc(NC(=O)CSc2nccn(-c3ccc4c(c3)OCCO4)c2=O)c1` gave SARS PLP yeast 1.6%, StopGo reporter -9.8%, Marburg entry inh -20.6%, Lassa entry inh -10.0% and RE007 growth inh 5.9%.
COc1cc(/C=N/N(C)c2ccccc2)ccc1O was read as NS1 function inh -16.5%, SARS PLP yeast -5.0%, Cruzain Triton -6.3%, StopGo reporter 43.8%[activator], Marburg entry inh inconclusive, Cruzain inh noDet 13.7%, Lassa entry inh -0.8% and RE007 growth inh 3.2%.
Screening CCCCc1cc(=O)oc2cc(OCC(=O)N3C[C@H]4C[C@@H](C3)c3cccc(=O)n3C4)c(Cl)cc12 returned NS1 function inh 6.3%, SARS PLP yeast -12.5%, StopGo reporter 13.8% and RE007 growth inh -8.7%.
Screening Cc1ccc(-c2csc(NC(=S)NC(=O)c3ccco3)n2)cc1 returned NS1 function inh 4.6%, SARS PLP yeast 6.2%, Cruzain Triton -5.3%, StopGo reporter 4.8%, Marburg entry inh 12.4%, Cruzain inh noDet inconclusive, Lassa entry inh -1.3% and RE007 growth inh -7.4%.
COc1ccc(C2Nc3ccccc3-c3cc(C)nn32)c(OC)c1 (stereo unspecified) was read as Cruzain Triton -6.4%, StopGo reporter -13.5%, Cruzain inh noDet 1.8% and Lassa entry inh 27.2%[46.1 µM].
For Cc1ccc(OCCn2nnc3ccccc32)cc1C the results were NS1 function inh -26.8%, StopGo reporter 16.4%, Marburg entry inh inconclusive, Lassa entry inh inconclusive and RE007 growth inh -2.0%.
Screening CN(C)S(=O)(=O)c1ccc(Cl)c(C(=O)OCC(=O)NC(=O)c2cccn2C)c1 returned NS1 function inh -12.7%, SARS PLP yeast 5.9%, Cruzain Triton -1.2%, StopGo reporter -5.8%, Marburg entry inh -7.7%, Cruzain inh noDet -20.2% and Lassa entry inh -15.4%.
For Cc1ccc(Cn2c(SCC(=O)NCc3ccc(Cl)cc3)nc3ccsc3c2=O)cc1 the results were Cruzain Triton 3.1%, StopGo reporter -11.0%, Cruzain inh noDet 6.5% and Lassa entry inh 5.9%[46.1 µM].
For COc1ccc(-c2nn3c(=O)cc(CN4CCN(S(=O)(=O)c5ccc(C)cc5)CC4)nc3s2)cc1 the results were Cruzain Triton 1.2%, StopGo reporter inconclusive, Cruzain inh noDet -9.3% and Lassa entry inh 2.2%[46.1 µM].
Screening O=C(NC(=S)Nc1ccc(CN2CCOCC2)cc1)c1ccc(-c2ccc(Cl)cc2)o1 returned NS1 function inh 1.0%, SARS PLP yeast 0.9%, StopGo reporter inconclusive and RE007 growth inh -4.0%.
CN(Cc1cc(=O)n2ccsc2n1)Cc1nc2ccccc2c(=O)[nH]1 was read as SARS PLP yeast 1.7%, StopGo reporter -5.9%, Marburg entry inh inconclusive, Lassa entry inh -1.4%[46.1 µM] and RE007 growth inh -7.9%.
COc1ccccc1NC(=O)c1cn(C)c(=O)c2cc(OC)c(OC)cc12 was read as NS1 function inh -2.8%, SARS PLP yeast 2.1%, Cruzain Triton -1.4%, StopGo reporter -13.1%, Marburg entry inh -15.3%, Cruzain inh noDet inconclusive, Lassa entry inh inconclusive and RE007 growth inh 6.1%.
For CC1Sc2ccc(S(=O)(=O)N3CCC(C(=O)NCc4ccco4)CC3)cc2NC1=O (stereo unspecified) the results were NS1 function inh 3.4%, SARS PLP yeast -2.8%, StopGo reporter -21.2%, Marburg entry inh 3.6%[46.1 µM], Lassa entry inh 23.4%[46.1 µM] and RE007 growth inh -6.5%.
Screening C/C(CC(=O)Nc1ccc2ccccc2c1)=N\NC(=O)c1cnccn1 returned NS1 function inh -2.3%, SARS PLP yeast -13.6%, Cruzain Triton -3.3%, StopGo reporter 19.9%, Marburg entry inh 13.6%, Cruzain inh noDet 3.3%, Lassa entry inh -10.0% and RE007 growth inh 6.6%.
Screening Cc1ccc(Cl)cc1Nc1nc(-c2sc(NC(=O)c3ccco3)nc2C)cs1 returned NS1 function inh 27.8%, SARS PLP yeast -10.9%, Cruzain Triton -3.5%, StopGo reporter 1.3%, Cruzain inh noDet 25.1µM* and RE007 growth inh -1.8%.
`Cc1cc(C)nc(N/N=C/c2ccccc2OCc2ccc([N+](=O)[O-])cc2)n1` gave NS1 function inh -1.3%, SARS PLP yeast -19.0%, Cruzain Triton -3.7%, StopGo reporter -14.9%, Marburg entry inh inconclusive, Cruzain inh noDet -16.3%, Lassa entry inh 15.6% and RE007 growth inh 6.1%.
For Cn1cccc1C(=O)C(=O)Nc1ccccc1C(F)(F)F the results were SARS PLP yeast -1.0%, StopGo reporter 20.8%, Marburg entry inh inconclusive, Lassa entry inh 15.4%[46.1 µM] and RE007 growth inh -0.7%.
Screening COc1cccc(-c2c(NC(C)=O)n(C)c3ccccc3c2=O)c1 returned NS1 function inh 0.0%, SARS PLP yeast 1.3%, StopGo reporter -17.1% and RE007 growth inh 4.5%.
CCCCNC(=S)N1CCN(c2ccc(C(C)=O)cc2)CC1 was read as NS1 function inh 2.8%, SARS PLP yeast -1.8%, StopGo reporter -24.0% and RE007 growth inh 16.7%.
For CCC(=O)NC(=S)Nc1ccc(N2CCN(C(=O)c3ccc(Cl)cc3)CC2)cc1 the results were NS1 function inh -1.1%, SARS PLP yeast -2.2%, StopGo reporter -30.0%, Marburg entry inh inconclusive, Lassa entry inh inconclusive and RE007 growth inh 10.6%.
For COc1ccc(Nc2c3c(nc4ccc(NC(=O)/C=C/c5cccc(OC)c5OC)cc24)CCCC3)cc1OC the results were Cruzain Triton inconclusive, StopGo reporter inconclusive, Marburg entry inh inconclusive, Cruzain inh noDet -4.3% and Lassa entry inh inconclusive.
CCCCC(=O)N1CCc2cc(OC)c(OC)cc2C1COc1ccc(OC)cc1 (stereo unspecified) was read as Cruzain Triton 0.1%, StopGo reporter 0.0%, Cruzain inh noDet 28.3% and Lassa entry inh -14.6%[46.1 µM].
For Cc1ccc(C(=O)Nc2ncccc2C)o1 the results were StopGo reporter -16.5%, Marburg entry inh 19.4%, Lassa entry inh -0.9% and RE007 growth inh -21.7%.
COc1cc2c(cc1NC(=S)Nc1cccc(C)c1)oc1ccccc12 was read as NS1 function inh 2.6%, SARS PLP yeast -6.1%, Cruzain Triton -2.7%, StopGo reporter 64.4%[activator], Marburg entry inh 15.6%, Cruzain inh noDet 31.6µM*, Lassa entry inh 1.2% and RE007 growth inh -11.9%.
Screening CN1CCN(c2ncnc3c2c(-c2ccccc2)cn3-c2ccc(F)cc2)CC1 returned SARS PLP yeast 1.2%, StopGo reporter inconclusive, Marburg entry inh inconclusive, Lassa entry inh inconclusive and RE007 growth inh 11.0%.
`CCOc1ccc(CCNC(=O)COC(=O)CCC(=O)c2cccs2)cc1OCC` gave NS1 function inh -19.0%, SARS PLP yeast -1.5%, StopGo reporter -16.2%, Marburg entry inh 1.8%, Lassa entry inh inconclusive and RE007 growth inh 7.2%.
Screening COC(=O)c1ccc(NC(=O)CSc2nc3ccc(N4C(=O)C5C6C=CC(C6)C5C4=O)cc3s2)cc1 (stereo unspecified) returned NS1 function inh inconclusive, SARS PLP yeast 28.5%, Cruzain Triton -6.6%, StopGo reporter 14.1µM*, Marburg entry inh inconclusive, Cruzain inh noDet -28.6%, Lassa entry inh inconclusive and RE007 growth inh -9.0%.
COc1cccc(CNC(=O)CCc2c(C)nn(-c3ccc(N4CCOCC4)nn3)c2C)c1 was read as Cruzain Triton -1.2%, StopGo reporter -17.9%, Cruzain inh noDet -8.6% and Lassa entry inh -6.3%[46.1 µM].
Screening CCC(=O)N1CCc2cc(S(=O)(=O)N3CCN(c4cc(C)ccc4C)CC3)ccc21 returned NS1 function inh -0.6%, SARS PLP yeast 8.2%, StopGo reporter 9.9%, Marburg entry inh 2.5%[46.1 µM], Lassa entry inh 2.7%[46.1 µM] and RE007 growth inh -2.5%.
For O=P(O)(O)Oc1ccccc1P(=O)(c1ccccc1)c1ccccc1 the results were NS1 function inh 9.4%, SARS PLP yeast 0.7%, StopGo reporter 4.4% and RE007 growth inh 9.7%.
`COc1ccc(/C(=C\Nc2ccc(C)c(C)c2)C(C)=O)cc1OC` gave SARS PLP yeast 1.4%, StopGo reporter -14.2%, Marburg entry inh inconclusive, Lassa entry inh -27.0% and RE007 growth inh -5.9%.
Screening CCCCOc1ccc(NC(=S)Nc2cc(C)nc(SCCCC)n2)cc1 returned NS1 function inh 12.7%, SARS PLP yeast -18.0%, Cruzain Triton 0.2%, StopGo reporter 3.5%, Marburg entry inh inconclusive, Cruzain inh noDet 25.1µM*, Lassa entry inh inconclusive and RE007 growth inh 10.0%.
Screening Cc1cc(N2CCOCC2)nc2ccc(Cl)cc12 returned NS1 function inh 8.0%, SARS PLP yeast -0.7%, StopGo reporter 41.8%[activator], Marburg entry inh inconclusive, Lassa entry inh 8.3%[46.1 µM] and RE007 growth inh 4.4%.
COc1ccccc1NC(=O)c1ccc(Br)o1 was read as NS1 function inh -36.4%, SARS PLP yeast -12.9%, Cruzain Triton 0.2%, StopGo reporter 4.9%, Marburg entry inh -1.6%, Cruzain inh noDet -8.2%, Lassa entry inh -0.8% and RE007 growth inh inconclusive.
Screening Cc1cccc(NC(=S)N(Cc2ccco2)C(C)c2cccs2)c1 (stereo unspecified) returned SARS PLP yeast 2.7%, StopGo reporter inconclusive, Marburg entry inh inconclusive, Lassa entry inh inconclusive and RE007 growth inh -20.3%.
Screening NC(=O)CC(NC(=O)Cc1ccc(Br)cc1)c1ccc(NCCN2CCCC2)c([N+](=O)[O-])c1 (stereo unspecified) returned NS1 function inh -10.4%, SARS PLP yeast 1.5%, StopGo reporter -0.2% and RE007 growth inh 2.1%.
Screening CCOc1ccc(NC(=O)CSc2oc(-c3ccco3)nc2S(=O)(=O)c2ccc(Cl)cc2)cc1 returned Cruzain Triton 3.0%, StopGo reporter inconclusive, Marburg entry inh 6.8%[46.1 µM], Cruzain inh noDet 20.8% and Lassa entry inh -0.1%[46.1 µM].
`COc1ccc(NC(=O)c2nnn(Cc3nc(-c4cc(Br)ccc4OC)oc3C)c2C)cc1` gave Cruzain Triton -1.8%, StopGo reporter -30.0%, Marburg entry inh 3.7%[46.1 µM], Cruzain inh noDet 14.7% and Lassa entry inh 8.4%[46.1 µM].
Screening Cc1c(C)c2ccc(OCC(=O)N3CCC(C(=O)O)CC3)c(C)c2oc1=O returned NS1 function inh 0.4%, SARS PLP yeast 4.3%, StopGo reporter -21.0% and RE007 growth inh 9.9%.
Cc1ccccc1NC(=O)C1CCCN(c2nnc(N3CCCC3=O)s2)C1 (stereo unspecified) was read as NS1 function inh -0.1%, SARS PLP yeast 1.5%, StopGo reporter -14.3% and RE007 growth inh -3.5%.
